High-throughput results (PubChem)
ClpP mod = qHTS Assay for Activators of ClpP; purified B. subtilis ClpP, FRET peptide cleavage, 20 min; Potency, µM (series often up to 57.5 µM), for inactives: at the top dose activity change, negative = active; 340,000 compounds, 1.9% hits; AID 651965, 2013; active = well fitted falling curve with a large enough effect; inconclusive = small, poorly fitted or top-dose-only effect; inactive = no such curve, though single readings can be large or run the other way; also: potency is read from the fitted curve at half-maximal effect; the source files actives as falling curves though it sought activators and does not explain the sign; nearly all actives have a fitted effect of over 65% in size; many hits overshoot -100%
Target sequence (P80244 whole entry, looked up): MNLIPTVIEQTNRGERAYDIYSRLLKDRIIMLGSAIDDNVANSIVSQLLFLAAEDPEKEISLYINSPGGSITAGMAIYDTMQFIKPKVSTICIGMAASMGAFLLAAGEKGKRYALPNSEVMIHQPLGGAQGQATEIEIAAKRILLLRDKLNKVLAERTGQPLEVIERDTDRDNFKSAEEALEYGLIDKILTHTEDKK
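Purified B. subtilis ClpP, 10 microg/mL final in Tris/HCl pH8 with KCl, BSA, glycerol and Tween-20, cleaved an Abz/nitrotyrosine-quenched decapeptide. Fluorescence (ex 320, em 430) was read at 0 and 20 min at room temperature. Delta was normalized to 5.8 microM ADEP and DMSO/no-enzyme controls.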
Menin-MLL FL inh = menin-MLL binding inhibition, fluorescein peptide | Fluorescence polarization, fluorescein-MLL peptide displacement from menin | FP activity change, % at 61.4 µM | 290,000 tested, under 10 active | AID 1766; inconclusive = falling polarisation curve, or a change in total fluorescence; inactive = total fluorescence flat and polarisation flat or rising; no compound was filed as active; the % refers to the polarisation; negative = inhibition;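 also: % of control where 0% means no effect; inhibitors lower the polarisation; unlabelled MLL peptide was the positive control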
D2 potentiator = positive allosteric modulators of human D2 dopamine receptor; DiscoveRx D2 beta-arrestin cells, luminescence, 90 min; 100% = 57 uM dopamine signal; 360,000 compounds, 0.23% hits; potentiation, % (concentration not given with the values); P14416; active = potentiation of 50% or more; inconclusive = 30% to 50%; inactive = 30% or less;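 also: tested on top of an EC20 dose of dopamine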
Target sequence (P14416 whole entry, looked up): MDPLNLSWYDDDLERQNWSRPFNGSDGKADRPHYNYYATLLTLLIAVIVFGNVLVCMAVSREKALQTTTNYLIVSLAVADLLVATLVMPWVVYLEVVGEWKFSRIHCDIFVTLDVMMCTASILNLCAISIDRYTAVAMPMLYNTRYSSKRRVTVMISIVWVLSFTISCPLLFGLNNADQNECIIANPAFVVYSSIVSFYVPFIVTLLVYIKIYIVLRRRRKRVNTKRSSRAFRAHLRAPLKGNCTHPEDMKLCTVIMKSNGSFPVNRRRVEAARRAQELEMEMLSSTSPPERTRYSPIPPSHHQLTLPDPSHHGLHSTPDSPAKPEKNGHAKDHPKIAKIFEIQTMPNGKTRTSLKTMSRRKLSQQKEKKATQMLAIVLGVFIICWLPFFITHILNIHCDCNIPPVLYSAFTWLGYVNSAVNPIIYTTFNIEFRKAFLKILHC
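D2 cells co-treated with compound plus 50 nM dopamine (EC20) for 90 min at 37 deg C to detect potentiation. Beta-arrestin recruitment was read as enzyme-fragment luminescence after 1 h at ambient temperature. Full response was set by 57 uM dopamine.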
gsp antag = antagonists of gsp mutant (McCune-Albright syndrome). gsp-mutant cells, cAMP HTRF, 30 min; control for the full effect not named in the record. Potency, µM (highest dose often 76.9 µM), for the others: top-dose activity change, negative = inhibition, hits mostly inhibitors. 340,000 compounds, 0.4% hits; active = falling curve of any shape with a large fitted effect; inconclusive = falling curve, mostly with a smaller effect; inactive = flat or rising curve; cell line not stated here;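 also: intracellular cAMP measured with PDE inhibitor Ro 20-1724 present during compound exposure; potency is read from the fitted curve at half-maximal effect; % is scaled to controls: 0 for no effect and ±100 for the full control effect; nearly all actives have a fitted effect of over 65% in size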
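Cells, 2000/well, grown 16–24 h in DMEM 10% FBS with 0.5 mg/ml G418, then compounds plus […] (300 uM addition stock), 30 min at 37C. cAMP read by HTRF (cAMP-d2 and anti-cAMP antibody-K in lysis buffer) after 30 min RT.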
TRPV1 PAM = human TRPV1 potentiation. Q8NER1. TRPV1-expressing cells, Fluo-8 calcium influx, capsaicin EC20 potentiation; host cell line not named in the record; control for the full effect not named in the record. potentiation, % at 8.33 µM. 320,000 compounds, 0.02% hits. AID 540277; active means potentiation above 80%; inconclusive means 30% to 80%; inactive means below 30%; also: 0% is about no effect
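Fluo-8 calcium influx in TRPV1-expressing cells, kinetic read (ex 480/em 520 nm). Compound added and read 3 min for agonist activity, followed by capsaicin at EC20 final and 2 min further read for enhancement.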
Sfp PPTase inh = Sfp phosphopantetheinyl transferase inhibition. Q9F4F7. Biochemical Sfp PPTase activity, qHTS. Potency, µM, inactives show max response, negative = inhibition, most hits filed as inhibitors. 310,000 compounds, 3.5% hits; active = well fitted inhibition curve with a large enough effect; inconclusive = small, poorly fitted or top-dose-only effect, or another doubt; inactive = no such curve, though single readings can be large or run the other way;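 also: the enzyme is Sfp with the accession as filed and its product quenches rhodamine fluorescence; potency is read from the fitted curve at half-maximal effect; 0% = enzyme reaction without inhibitor and -100% = no enzyme wells; top concentration of the series not given in the record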
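Compounds were incubated with enzyme (final 15 nM) for 15 min at room temperature before substrate addition started the reaction. Fluorescence at 525 nm excitation, 598 nm emission was recorded immediately and after 30 minutes.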
gsp agonist = activates gsp, the McCune-Albright syndrome mutation; AID 624287; gsp mutant cells, cAMP HTRF, 30 min; control for the full effect not named in the record; Potency, µM (doses to about 76.9 µM), for inactives: at the top dose activation (cAMP increase), usual class: activators; 340,000 compounds, 0.13% hits; active = well fitted activation curve with a large enough effect; inconclusive = small, poorly fitted or top-dose-only effect, or another doubt; inactive = no such curve, though single readings can be large or run the other way; cell line not stated here;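 also: phosphodiesterase inhibitor Ro 20-1724 added with compounds to block cAMP breakdown; potency is read from the fitted curve at half-maximal effect; nearly all actives have a fitted effect of over 60% in size; about a fifth of the inactives were tested at one dose only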
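Cells in DMEM/10% FBS with G418 were pretreated with compounds in DMSO plus […] (300 uM stock) for 30 min at 37C. cAMP was measured by HTRF (cAMP-d2 plus anti-cAMP antibody-K) after 30 min at room temperature.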
Active calls of the source: *; ? = inconclusive; nt = not tested or not shown; & = joins results of further samples; [ ] = dose if it differs, or a comment.

SMILES | ClpP mod | Menin-MLL FL inh | D2 potentiator | gsp antag | TRPV1 PAM | Sfp PPTase inh | gsp agonist
COc1ccc(-c2cc(=O)oc3cc(OC(C)C(=O)NCc4ccccn4)ccc23)cc1 (stereo not given) | -11.8% | 0.4 | -30.0 | -24.6% | 0.6 | -1.8% | nt
Cc1ccc(S(=O)(=O)/N=C/c2ccc(N(C)C)cc2)cc1 | -23.5% | 6.2 | 7.6 | 7.3% | 5.6 | 23.1% | ?
CC(C)CC(NC(N)=O)C(=O)OCC(=O)Nc1ccc(OC(F)F)cc1 (stereo not given) | nt | ? | -7.3 | -17.6% | 9.2 | 17.6% | 0.2%[15.4 µM]
Cc1ccc2nc(SCc3nnc(-c4ccccc4)o3)[nH]c2c1 | 0.3% | -1.4 | 2.0 | 1.3% | 0.6 | 7.4% | -3.6%
CCN(CC)c1ccc(C(=O)NNC(=O)CN2C(=O)NC(C)(c3ccccc3)C2=O)cc1 (stereo not given) | -6.1% | nt | -2.5 | 8.3% | 0.4 | nt | ?
O=C1[C@@H]2[C@@H](CN3CN(c4ccccc4)N=C(c4ccccc4)[C@@]23c2ccccc2)C(=O)N1c1ccccc1 | 3.55µM* | nt | 1.8 | 10.2% | nt | nt | -3.9%
O=C1Nc2ccccc2S/C1=C/NCc1ccccc1Cl | 0.3% | -5.5 | -3.7 | -1.3% | 8.7 | 56.2µM* | -31.6%[inhibitor]
O=C(CCC(=O)N1CCN(c2ccc(F)cc2)CC1)c1ccc(Cl)cc1 | -0.7% | nt | -18.5 | -13.4% | -12.0 | 8.4% | ?
O=C(c1ccccc1)C1CN(c2ccccc2)CC1c1ccc(Cl)cc1 (stereo not given) | -0.5% | 2.9 | -7.9 | 11.4% | 1.1 | 24.9% | -25.8%
Cc1ccc(/C(N)=N/OC(=O)Cc2ccccc2)cc1 | 1.0% | 3.6 | -22.9 | 10.0% | 2.4 | -3.0% | -0.2%
Cc1ccccc1N1CCN(S(=O)(=O)Cc2ccccc2)CC1 | -0.4% | 1.0 | -9.7 | -4.0% | -11.9 | 9.9% | 1.0%
Cc1nn(-c2ccccc2)c(C)c1NC(=O)CCl | 1.0% | 1.3 | 3.2 | 1.9% | 4.8 | 8.7% | -7.3%
Cc1nc(NC(=O)CSc2nc3cccnc3n2Cc2ccccc2)sc1C | -4.2% | 5.5 | 19.3 | 9.4% | 0.6 | 0.5% | 9.0%
COc1ccc(Cc2nnc(SCC(=O)Nc3ccc(N4CCOCC4)cc3)n2C)cc1 | nt | 0.6 | -4.5 | 0.1% | -6.5 | 13.0% | -26.7%
COc1ccc(OCC(=O)NC2CCCCCCC2)cc1 | nt | -6.7 | -2.5 | -0.8% | 6.9 | 16.8% | -18.3%
CCOc1ccc2nc(SCC(=O)N(CC(C)C)c3c(N)n(CC(C)C)c(=O)[nH]c3=O)[nH]c2c1 | ? | nt | -4.3 | 7.6% | nt | nt | -62.7%[inhibitor]
CCOc1ccc(CCNC(=O)C2CC(=O)N(Cc3ccc(OC)cc3)C2)cc1OCC (stereo not given) | 1.5% | 0.6 | 2.2 | -8.2% | 3.2 | 26.9% | -44.3%[inhibitor]
COC(=O)c1c(NC(=O)COC(=O)c2ccc(NC(=O)CC#N)cc2)sc2c1CCCCC2 | nt | ? | -1.3 | -9.8% | -18.9 | -23.8% | -8.8%[15.4 µM]
Cc1ccc(NC(=O)COC(=O)Cn2cnc3ccccc32)cc1S(=O)(=O)N(C)C | -1.9% | 3.1 | -14.3 | 5.1% | 2.0 | 3.6% | ?
COc1ccc(CCNS(=O)(=O)c2ccc3c(c2)CCN3C(=O)C2CC2)cc1OC | -0.4% | 1.0 | -13.1 | -15.0% | -11.6 | 9.1% | -21.4%
COc1ccc(S(=O)(=O)N2CCN(C(=O)c3ccc(COc4ccccc4)o3)CC2)cc1 | -3.3% | nt | -19.4 | nt | nt | nt | -72.9%
O=C(Nc1nc(-c2ccc(Cl)s2)cs1)c1ccncc1 | -2.6% | -3.5 | 6.8 | 2.8% | 3.4 | -2.8% | -20.9%
NS(=O)(=O)c1ccc(CCNC(=O)COC(=O)CCN2C(=O)C3CC=CCC3C2=O)cc1 (stereo not given) | -0.8% | nt | -9.2 | 10.8% | ? | nt | 11.5%
Cc1ccccc1NC(=O)CSc1nnc(-c2ccoc2C)n1CCc1ccccc1 | 1.4% | 6.7 | -25.1 | -6.0% | 0.6 | -14.9% | -22.0%
CCC(=O)c1coc2ccc(O)cc12 | -1.0% | nt | ? | 11.5% | nt | nt | -32.7%

(next part)
SMILES | ClpP mod | Menin-MLL FL inh | D2 potentiator | gsp antag | TRPV1 PAM | Sfp PPTase inh | gsp agonist
CCc1ccc(NC2CC(=O)N(CCc3ccc(OC)c(OC)c3)C2=O)cc1 (stereo not given) | -0.8% | -7.6 | -28.9 | -4.8% | -8.4 | 1.5% | -4.1%[15.4 µM]
O=C(C1COc2ccccc2O1)N1CCN(Cc2ccccc2)CC1 (stereo not given) | 0.6% | -2.2 | -4.9 | 1.6% | -18.9 | -7.1% | 1.7%
O=C(CCN1C(=O)C2CCCCC2C1=O)N1CCN(S(=O)(=O)c2ccccc2)CC1 (stereo not given) | -1.1% | nt | 13.2 | -20.4% | -1.5 | nt | 9.2%
CC(C)(C)n1nnnc1C(c1cccnc1)N1CCN(c2ccccc2)CC1 (stereo not given) | 0.5% | 0.0 | -8.8 | 7.0% | 0.1 | 22.4% | -20.3%
CC(C)c1cccc(-c2ccc3c(c2)S(=O)(=O)c2cccc(C(=O)NCc4ccco4)c2C3=O)c1 | 1.5% | nt | -3.1 | 1.3% | nt | nt | -19.6%
Cc1c(C(=O)N(C)CCC#N)oc2ccc(S(=O)(=O)N3CCOCC3)cc12 | 0.7% | -3.0 | -3.5 | -5.2% | -0.2 | 9.6% | -34.0%[inhibitor]
Cc1ccc(S(=O)(=O)N2CCN(CC(=O)N/N=C/C=C/c3ccccc3)CC2)cc1 | -0.1% | -2.9 | 10.3 | -12.6% | -7.0 | -10.5% | -39.7%[inhibitor]
Cc1ccc(C(=O)C2=C(O)C(=O)N(Cc3ccccc3)C2c2cccnc2)o1 (stereo not given) | -1.3% | -1.3 | 3.2 | 13.6% | -17.8 | -9.2% | ?
CCCCCC(=O)NNC(=S)NC(=O)c1cccc([N+](=O)[O-])c1 | 0.3% | 2.7 | 1.5 | 8.2% | 4.5 | ? | 0.0%
Cc1ccc(C)c(NC(=O)C2CCCN(S(=O)(=O)c3c(C)nn(C)c3C)C2)c1 (stereo not given) | nt | 0.7 | -9.1 | -2.7% | -13.5 | 7.8% | 32.7%
CCCCn1c(N)c(N(CC(C)C)C(=O)C2CCN(C(=O)c3ccc(F)cc3)CC2)c(=O)[nH]c1=O | -1.0% | nt | -10.6 | -6.7% | 19.2 | 15.7% | -16.4%
COC(=O)c1ccc(Nc2nc(C)cc(=O)[nH]2)cc1 | -3.1% | -1.1 | 2.6 | 6.0% | 10.6 | 4.6% | -2.4%
O=C(Cc1ccc(S(=O)(=O)N2CCCCC2)s1)Nc1ccc(F)cc1F | -5.9% | 4.2 | -5.9 | -7.1% | -10.7 | 35.6% | 1.2%[15.4 µM]
Cc1cccc(OCc2nnc(SCC(=O)Nc3ncc(C)s3)o2)c1 | nt | -0.5 | -2.7 | -24.5% | 8.4 | -3.4% | 6.1%[15.4 µM]
CCCC(=O)Nc1ccc(NC(=O)c2ccco2)c(OC)c1 | 1.1% | 3.6 | -9.7 | 0.3% | 4.5 | 7.0% | -23.8%
CCOc1ccc2oc(C(=O)OC(C(=O)NC(N)=O)C(C)C)c(C)c2c1 (stereo not given) | nt | 0.3 | -4.1 | -4.3% | 0.5 | -13.8% | 1.6%[15.4 µM]
O=C(CCCOc1ccccc1)NCCc1ccccc1 | nt | -10.1 | -10.3 | 4.2% | -11.1 | 16.1% | 3.6%[15.4 µM]
CCc1ccc(NC(=O)CCn2c(=O)c3cccn3c3ccccc32)cc1 | -14.4%&-28.0% | nt | -10.5 | -22.6% | 3.9 | 5.8% | -17.6%
Cc1ccc(NC(=O)C(=O)NNC(=O)c2ccccc2C)cc1Cl | 1.0% | -1.4 | -32.9 | 2.8% | 1.8 | 10.4% | 11.0%[15.4 µM]
CCOc1ccc(CCNC(=O)c2nnn(CC(=O)Nc3ccccc3C)c2N)cc1OCC | 1.1% | nt | 0.5 | 3.7% | -14.0 | -6.3% | ?
Cc1ccc(S(=O)(=O)NCCn2cnc([N+](=O)[O-])n2)cc1 | nt | -4.9 | 3.9 | 0.8% | -5.6 | 15.0% | -6.1%[15.4 µM]
COc1ccc(N2CC(C(=O)N3CCC4(CC3)CC(=O)c3ccccc3O4)CC2=O)cc1 (stereo not given) | ? | nt | -9.5 | -19.1% | 7.4 | nt | -2.6%
N#CC(C(=O)c1ccco1)c1ccccn1 (stereo not given) | -3.7% | -5.0 | 2.9 | 7.8% | -9.3 | 18.9% | ?
C=CCOc1ccccc1CN1CCC(Oc2cc(C(=O)NC3CC3)ccc2OC)CC1 | ? | nt | -20.9 | 4.6% | -13.3 | 10.4% | -9.3%
Cc1ccc(S(=O)(=O)N2CCOCC2)cc1C(=O)OCC(=O)NC1CCS(=O)(=O)C1 (stereo not given) | ? | -1.7 | -12.6 | 8.3% | -46.0 | 8.1% | ?
CCN(CC(=O)NCc1ccc(Cl)cc1)C(=O)c1ccc(S(=O)(=O)NCc2ccco2)cc1 | -1.9% | nt | -20.9 | -7.8% | -13.4 | 7.4% | 16.9%[15.4 µM]
COc1cc(/C=N/NC(=O)c2ccc(Cl)c(S(N)(=O)=O)c2)ccc1OCC(N)=O | nt | 0.6 | -1.0 | -2.2% | -12.8 | 33.1%[activator] | -17.9%[15.4 µM]
CCOc1ccc(NC(=O)N2CCC(c3nc4ccccc4[nH]3)CC2)cc1 | nt | -3.3 | -9.0 | -4.6% | 0.7 | 13.7% | 5.0%
Cc1ccc(C)c(NC(=O)CN(C)C(C)C(=O)N2CC(C)CC(C)C2)c1 (stereo not given) | nt | nt | -6.5 | -15.6% | -9.3 | nt | -14.3%[15.4 µM]

Hits appear at their usual frequency. About 5.1% of those tested had a hit in this group.
